From PubChem BioAssay
Measles inh: inhibitors of measles virus growth in cells, primary screen, measles RdRp inhibitor project, cell-based, single point, HTS; AID 745, 2007; actives 0.1% (n = 33,000); z-score (concentration not given with the values); infected Vero cells, GFP fluorescence, 64 h; active compounds read low;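 active = z-score under -3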;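 note: score is relative to mean and SD of the compound wells of a plate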
* hit, by the source's call. This is a subset; the hit share may differ from the screen's.

Measles inh	smiles
-1.8	COc1cc(N/C(N)=N\c2nc3c(c(=O)[nH]2)CCCC3)cc(OC)c1
0.26	CCN1CCN(C2CC(=O)N(c3ccc(-c4nc5ccc(C)cc5s4)cc3)C2=O)CC1 (stereo not drawn)
0.44	CCN(CC)C1c2cccc3cccc(c23)C1NS(=O)(=O)c1ccc(Cl)cc1 (stereo not drawn)
-0.05	COc1ccc(N2C(=O)C3ON(c4ccc(Cl)cc4)C(c4cccs4)C3C2=O)cc1 (stereo not drawn)
-1.4	CC(C)(C)c1ccc2c(c1)C(=O)C(=O)c1cc(C(C)(C)C)ccc1-2
0.76	COc1ccc(-n2c(=O)[nH]c3cc(C(=O)NCCc4ccc(Cl)cc4)ccc3c2=O)c(OC)c1
-0.49	COc1ccc(C)cc1NC(=O)C1CCN(C(=O)c2ccccc2C)CC1
0	CCCSc1nnc2c(n1)OC(C)N(C(C)=O)c1ccccc1-2 (stereo not drawn)
-1.6	O=C(NCCc1ccccc1)c1cc(-c2ccc3c(c2)OCO3)on1
0.2	N#Cc1c(N)c(C(N)=S)n2c1CCC2
0.06	CC1(C)CC(=O)C2=C(C1)Nc1ccccc1NC2c1ccccc1OCc1ccccc1 (stereo not drawn)
-0.27	COc1ccc(CN2COc3cc(C)c(Cl)c(C)c3C2)cc1
0.14	COc1ccc(C(=O)Nc2cc([N+](=O)[O-])ccc2OC)c(OC)c1
0.87	CCOc1ccc2nc(C(=O)N3CCC(Cc4ccccc4)CC3)sc2c1
-0.06	CCN(CC)c1ccc2cc(C(=O)Nc3cccc(C)c3)c(=N)oc2c1
-0.13	Cc1ccc(C)c(OCC(=O)Nc2nccs2)c1
-0.26	COc1cc(C2OCC3C(C)C=C(C)C2C3C)ccc1OCc1ccc(C(=O)O)cc1 (stereo not drawn)
-0.74	Cc1ccccc1CSc1nc2c(c(=O)n1-c1ccc(F)cc1)SCC2
0.49	COc1ccc(NC(=O)c2cc3ccccc3oc2=O)cc1Cl
-0.89	CCOC(=O)C1=C(C)NC2=C(C(=O)C(C(=O)OC)C(C)C2)C1c1ccccc1 (stereo not drawn)
-2.9	CCCN(C(=O)CCc1nc(-c2ccc(C)cc2)no1)c1ccc(CC)cc1
-0.44	CCC(C)NC(=O)c1cc2cc3cc(OC)ccc3nc2o1 (stereo not drawn)
-0.7	O=C1CSC(c2cccc([N+](=O)[O-])c2)N1c1ccccc1F (stereo not drawn)
1	Cc1cc(C(=O)Nc2sc3c(c2C#N)CCCC3)no1
1.1	Cc1ccc(-c2ccccc2)n1-c1ccc(C(=O)O)cc1
2.1	O=C(Cn1ccc2ccccc2c1=O)NCC(=O)N1CCN(c2ccc(F)cc2)CC1
0.7	COc1ccc(OC)c(NC(=O)C2=C(C)NC(=O)NC2c2ccc(N(C)C)cc2)c1 (stereo not drawn)
-0.67	Cc1cc(NC(=O)Cn2c(=O)n(-c3cccc(C(F)(F)F)c3)c(=O)c3sccc32)n[nH]1
1.3	CCc1ccc(S(=O)(=O)N=C2C=CC(=O)c3ccccc32)cc1
-0.74	FC(F)(F)c1cc(-c2cccs2)nc(N2CCc3ccccc3C2)n1
0.14	Cc1ccc2[nH]c(=O)cc(C(=O)OCC(=O)c3ccc(Br)cc3)c2c1
-1.1	O=C(CCN1C(=O)C2C3C=CC(C3)C2C1=O)NCc1cccnc1 (stereo not drawn)
-0.2	Cc1[nH]c2ccccc2c1SCCNC(=O)C1CC1
0.67	COc1cccc(CCNC2CC(=O)N(c3ccc(C)cc3)C2=O)c1 (stereo not drawn)
-0.29	CCOC(=O)c1sc2c(c1C)c(=O)c(C(=O)OCC)cn2CC
-0.37	COCCNc1ncnc2scc(-c3ccccc3)c12

An excerpt of these results, with bars between the fields:
canonical_smiles | Measles inh
CCC(C)NC(=O)c1cc2cc3cc(OC)ccc3nc2o1 (stereo not drawn) | -0.44
O=C1CSC(c2cccc([N+](=O)[O-])c2)N1c1ccccc1F (stereo not drawn) | -0.7
Cc1cc(C(=O)Nc2sc3c(c2C#N)CCCC3)no1 | 1
Cc1ccc(-c2ccccc2)n1-c1ccc(C(=O)O)cc1 | 1.1
O=C(Cn1ccc2ccccc2c1=O)NCC(=O)N1CCN(c2ccc(F)cc2)CC1 | 2.1
COc1ccc(OC)c(NC(=O)C2=C(C)NC(=O)NC2c2ccc(N(C)C)cc2)c1 (stereo not drawn) | 0.7
Cc1cc(NC(=O)Cn2c(=O)n(-c3cccc(C(F)(F)F)c3)c(=O)c3sccc32)n[nH]1 | -0.67
CCc1ccc(S(=O)(=O)N=C2C=CC(=O)c3ccccc32)cc1 | 1.3
FC(F)(F)c1cc(-c2cccs2)nc(N2CCc3ccccc3C2)n1 | -0.74
Cc1ccc2[nH]c(=O)cc(C(=O)OCC(=O)c3ccc(Br)cc3)c2c1 | 0.14
O=C(CCN1C(=O)C2C3C=CC(C3)C2C1=O)NCc1cccnc1 (stereo not drawn) | -1.1
Cc1[nH]c2ccccc2c1SCCNC(=O)C1CC1 | -0.2
COc1cccc(CCNC2CC(=O)N(c3ccc(C)cc3)C2=O)c1 (stereo not drawn) | 0.67
CCOC(=O)c1sc2c(c1C)c(=O)c(C(=O)OCC)cn2CC | -0.29
COCCNc1ncnc2scc(-c3ccccc3)c12 | -0.37

The results go on:
Measles inh	smiles
1.5	O=C(CSc1nnc(-c2cccc(F)c2)c(-c2cccc(F)c2)n1)NC1CCCCC1
0.23	O=C(Cc1ccc([N+](=O)[O-])cc1)Nc1cccc(NC(=O)Cc2ccc([N+](=O)[O-])cc2)n1
0.96	O=C(COC(=O)c1ccc([N+](=O)[O-])cc1Cl)c1ccc(Br)cc1
-0.45	CN1CCN(C(=O)c2cnn3c(C(F)F)cc(-c4ccccc4)nc23)CC1
-0.53	CC1(C)CC(=O)C2=C(C1)N(c1cccc(C(=O)O)c1)C1=C(C(=O)CC(C)(C)C1)C2c1ccc(F)cc1
-0.42	COc1ccc([N+](=O)[O-])cc1NC(=O)c1ccc(S(=O)(=O)N2CC(C)CC(C)C2)cc1 (stereo not drawn)
-0.29	CCOc1ccc(C(=O)Nc2ccc3oc(-c4ccc5ccccc5c4)nc3c2)cc1[N+](=O)[O-]
-4*	CC(C)CC(=O)N1CCN(Cc2cccc(Cl)c2)CC1
1.1	O=C(CN1CCN(Cc2ccccc2F)C1=O)NC1CCCC1
0.12	CCc1sc(NC(C)=O)nc1-c1cc2ccccc2oc1=O
1.9	O=C(NC1CC1)C1CC(=O)N(C2CCCCCC2)C1 (stereo not drawn)
-0.39	CC(C)CNC(=O)c1nn2c(C(F)(F)F)cc(-c3cc(Br)cs3)nc2c1Br
1	COC(=O)C1=CN(C2CCCC2)C=C(C(=O)OC)C1c1cccc(F)c1
-1.1	Cc1ccc(C2NC(=O)c3c(sc4c3CCCC4)N2)c(O)c1 (stereo not drawn)
-0.5	CCN1CCCC1CNC(=O)C1(O)c2ccccc2NC(=O)N1c1ccc(Cl)cc1 (stereo not drawn)
-1.6	CCOC(=O)c1ccc2nc(NC(=O)c3ccc(OC(C)=O)cc3)sc2c1
-0.59	Cc1cccc2c1-c1ncccc1C2=Nc1ccccc1
1	CC(=O)Nc1ccc2c(c1)CCC2=O
2.4	Cc1ccc(C)c(NC(=O)c2ccc(S(=O)(=O)N3CCc4ccccc4C3)cc2)c1
-0.98	CCOC(=O)c1ccc(NC(=O)COc2ccc(C(C)C)c(C)c2)cc1
0.29	COC(=O)c1ccc(CSc2nc(-c3ccc(OC)cc3)nc3c2c(=O)n(C)c(=O)n3C)o1
-0.39	O=C(C1CCC1)N1CCc2cc(S(=O)(=O)NCc3ccccc3)ccc21
-0.23	COc1ccc(C(=O)Nc2ccc3c(c2)OC(F)(F)O3)cc1OC
-0.18	CCCOC(=O)C1=C(C)NC2=C(C(=O)CC(C)(C)C2)C1c1ccc(OC)cc1 (stereo not drawn)
1	CN(C(=O)COc1ccc(Cl)cc1)c1ccccc1C(=O)O
-0.82	CCC(CC)C(=O)c1c(O)c2ccccc2oc1=O
-0.2	COc1ccc2oc(=O)c(-c3csc(Nc4ccccc4F)n3)cc2c1
0.82	COc1ccc(OC)c(N2C(=O)C3C(C2=O)C2(Br)c4ccccc4C3(Br)c3ccccc32)c1 (stereo not drawn)
1.3	CCOC(=O)c1c(-c2ccccc2)csc1NC(=O)c1ccc(S(=O)(=O)N2CCCC2)cc1
0.06	Cc1cc2c(=O)n(CC(=O)Nc3cc(F)ccc3C)cnc2s1
-0.14	Cc1ccc(N(CC(=O)O)S(=O)(=O)c2cccs2)cc1
-1.6	Cc1ccc(C(=O)Oc2cc(N)n(S(=O)(=O)c3ccc(Cl)cc3)n2)cc1C
-1.1	CC(C)CNC(=O)c1cc2n(n1)C(C(F)(F)F)CC(c1ccco1)N2 (stereo not drawn)
-0.89	O=S(=O)(N=C(Nc1ccccc1)c1ccccc1Br)c1ccc(Cl)cc1
-1	CCCN(CCC)S(=O)(=O)c1ccc(C(=O)Nc2nc3ccc(Br)cc3s2)cc1
-0.13	COc1ccc(-n2cnc3cc(NCc4ccc(Br)cc4)ccc32)cc1
0.02	Cc1ccc(C)c(N2C(=O)NC3CC2(C)Oc2ccc(Cl)cc23)c1 (stereo not drawn)
-1.3	Cc1c(C(=O)Nc2ccc(S(=O)(=O)N3CCCCC3C)cc2)oc2ccccc12 (stereo not drawn)
-1.6	O=C(Nc1ccc2oc(-c3ccccc3Br)nc2c1)c1cccc(Cl)c1
-0.94	COc1cccc(NC(=O)c2cc(S(=O)(=O)NC3CCCC(C)C3C)ccc2F)c1 (stereo not drawn)
-2.5	CCn1c(NCc2cc(Br)ccc2O)nc2ccccc21
-1.5	O=C(CN1C(C(=O)c2ccccc2)=C(N2CCCCC2)c2ccccc2S1(=O)=O)c1ccccc1
0.3	Cc1cc(C)cc(-n2nnc(C(=O)NCc3ccc(Cl)cc3)c2N)c1
-1	O=C1c2sc3nnc(-c4ccccc4)c(=O)n3c2C(=O)N1Cc1ccccc1
-0.3	COC(=O)CNC(c1ccccc1)c1cc(Br)ccc1NS(=O)(=O)c1ccc(C)cc1 (stereo not drawn)
0.42	CCCn1c(NCC)nc2c1c(=O)n(C)c(=O)n2C
0.48	COc1ccc(-n2c(C)nc3cc(C(=O)NCc4ccc(C)cc4)ccc32)cc1
-0.36	CN(C)c1ccc(CN(C(=O)c2ccco2)C2CCS(=O)(=O)C2)cc1 (stereo not drawn)
1.9	COCCOC(=O)C1=C(C)NC2=C(C(=O)CC(c3cccs3)C2)C1c1ccc2c(c1)OCO2 (stereo not drawn)
-0.93	COc1cc(NC(=O)C2c3ccccc3Oc3ccccc32)c(OC)cc1Cl
2.9	CC(=O)C1=NN(c2ccccc2)C(c2cccs2)N1c1ccccc1 (stereo not drawn)
0.08	Cc1c(C(=O)Nc2nc3ccc(Br)cc3s2)sc2ncn(Cc3ccccc3F)c(=O)c12
-0.03	O=[N+]([O-])c1ccc(N2CCN(S(=O)(=O)c3ccc(Cl)cc3)CC2)cc1NC1CC1
0.52	O=C(Nc1ccccc1)c1ccc(Cl)c(S(=O)(=O)Nc2ccccc2)c1
1.7	CC(=O)N1c2ccc(S(=O)(=O)NCc3ccco3)cc2CC1C (stereo not drawn)
-0.25	Nc1cccc(C(=O)N2N=C(C(F)(F)F)CC2(O)c2ccc(F)cc2)c1 (stereo not drawn)
-0.23	CCc1ccc(NC(=O)Cn2c(=O)n(-c3cccc(OC)c3)c(=O)c3cc(OC)c(OC)cc32)cc1
0.75	O=C(O)CCc1ccc(-c2ccccc2)n1-c1ccccc1C(F)(F)F
0.92	O=c1[nH]c2ccc([N+](=O)[O-])cc2nc1Cc1ccccc1Cl
2.4	CCCSc1oc(-c2cccs2)nc1S(=O)(=O)c1ccc(Cl)cc1

More records follow.
Measles inh	smiles
0.35	CCCC1CC(C)(C(=O)Cn2[nH]c(=O)ccc2=O)OC1=O (stereo not drawn)
0.8	COc1ccc(C2=CC(c3ccccc3OC(F)F)n3c(nc4ccccc43)N2)cc1 (stereo not drawn)
0.11	CCCNC(=O)Cn1cnc2sc(C(=O)Nc3cccc(OC)c3)c(C)c2c1=O
0.59	COc1ccc(C2=NN(CC(=O)Nc3cccc(C)c3C)C(=O)CC2)cc1
-0.44	O=C(CSc1nnc2sc3ccccc3n12)N1c2ccccc2CCc2ccccc21
-0.88	Nc1nc2sc3c(c2cc1C(=O)N1CCOCC1)CCCC3
-0.34	Cc1ccc(C(=O)NC(C(=O)N2CCCCC2)C23CC4CC(CC(C4)C2)C3)cc1 (stereo not drawn)
0.32	O=c1cc(-c2cccs2)nc(-c2cccc(I)c2)o1
-0.13	CC1=NN(C(=O)C(C)C)C(O)(c2ccccc2)C1 (stereo not drawn)
0.44	CCOC(=O)C1=C(C)N(c2ccccc2)C(=S)NC1c1ccc(OC)cc1 (stereo not drawn)
1.3	Cc1ccc(-n2c(SCC(=O)N3CCOCC3)nc3c([nH]c4ccccc43)c2=O)cc1
-1.5	O=C(Cc1ccccc1)NC(NCCOC12CC3CC(CC(C3)C1)C2)(C(F)(F)F)C(F)(F)F
0.87	Cc1ccccc1Nc1c(-c2ccsc2)nc2cnccn12
0.45	CCN(CC)S(=O)(=O)c1ccc(C)cc1
0.1	N#Cc1c(NC(=O)c2ccc(S(=O)(=O)N3CCCC3)cc2)sc2c1CCC2
0.3	COc1cccc(OC)c1C(=O)N1CCN(C(=O)C2CC2)CC1
-1.1	CCCc1c(C)nc2c(C(=O)O)c[nH]n2c1=O
-1.1	Cn1c(SCC(=O)Nc2ccccc2Oc2ccccc2)nc2ccccc2c1=O
-0.45	Cc1ccc(Nc2nc(-c3ccc(F)c(C)c3)cs2)nc1
-0.52	O=C1CCCc2oc3c(cc(NS(=O)(=O)c4cccs4)c4ccccc43)c21
-0.38	COc1ccc(S(=O)(=O)N2CC(C)CC(C)C2)cc1OC (stereo not drawn)
0.52	Cc1cc(C(c2ccc(O)c(C)c2)C(Cl)(Cl)Cl)ccc1O
0.56	CCOc1ccc(C2N3CCc4ccccc4C3CN2S(=O)(=O)c2ccc(C)cc2)cc1OCC (stereo not drawn)
-0.7	CCOC(=O)C1=C(CC)NC2=C(C(=O)CC(C)(C)C2)C1c1ccccc1F (stereo not drawn)
1.4	CCOc1ccccc1NC(=O)CSc1nnc(CC)c(CC)n1
